Screening results: PubChem BioAssay, National Center for Advancing Translational Sciences (NCATS)
ClpP mod: qHTS Assay for Activators of ClpP. Potency, µM (titrated, usually from 57.5 µM), without a hit: top-dose activity change, negative = active. AID 651965, 2013. purified B. subtilis ClpP, FRET peptide cleavage, 20 min. 340,000 compounds, 1.9% hits. ATP-dependent Clp protease proteolytic subunit (Bacillus subtilis (strain 168)), P80244; active = well fitted falling curve with a large enough effect; inconclusive = small, poorly fitted or top-dose-only effect; inactive = no such curve, though single readings can be large or run the other way; further: potency means the concentration at half of the fitted maximal effect; the source files actives as falling curves though it sought activators and does not explain the sign; nearly all actives have a fitted effect of over 65% in size; many hits overshoot -100%
Target sequence (P80244 whole entry, looked up): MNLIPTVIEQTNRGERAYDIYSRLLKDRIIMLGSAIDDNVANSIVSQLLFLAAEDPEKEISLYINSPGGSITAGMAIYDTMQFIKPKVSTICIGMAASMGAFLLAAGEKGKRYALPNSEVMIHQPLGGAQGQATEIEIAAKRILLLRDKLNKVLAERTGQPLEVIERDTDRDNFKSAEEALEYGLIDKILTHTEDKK
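FRET quenching reversal measured ClpP activation: 10 microg/mL B. subtilis ClpP at pH 8 with the FRET-FV decapeptide, read at 430 nm after 320 nm excitation. The 20-min minus 0-min signal was scaled between DMSO/no-enzyme wells and ADEP (5.8 microM final).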
gsp antag: antagonists of gsp mutant (McCune-Albright syndrome); AID 624288; 340,000 compounds, 0.4% hits; gsp-mutant cells, cAMP HTRF, 30 min; control for the full effect not named in the record; Potency, µM (top dose mostly 76.9 µM), without a hit: at the highest dose activity change, negative = inhibition, usual class: inhibitors; active = falling curve of any shape with a large fitted effect; inconclusive = falling curve, mostly with a smaller effect; inactive = flat or rising curve; cell line not stated here;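 further: intracellular cAMP measured with PDE inhibitor Ro 20-1724 present during compound exposure; potency means the concentration at half of the fitted maximal effect; on the % scale 0 is the no-effect control and ±100 the full control effect; nearly all actives have a fitted effect of over 65% in size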
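Cells, 2000/well, grown 16–24 h in DMEM 10% FBS with 0.5 mg/ml G418, then compounds plus […] (300 uM addition stock), 30 min at 37C. cAMP read by HTRF (cAMP-d2 and anti-cAMP antibody-K in lysis buffer) after 30 min RT.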
D2 ag: agonists of human D2 dopamine receptor (beta-arrestin); activation, % (concentration not given with the values); P14416; DiscoveRx PathHunter D2 beta-arrestin, luminescence, 90 min; 100% = 57 uM dopamine signal; AID 624465; 360,000 compounds, 0.084% hits; in the data active = activation above about 40%; inconclusive = about 15% to 40%; inactive = below about 15%; further: the text of the record calls up to 30% inactive
Target sequence (P14416 whole entry, looked up): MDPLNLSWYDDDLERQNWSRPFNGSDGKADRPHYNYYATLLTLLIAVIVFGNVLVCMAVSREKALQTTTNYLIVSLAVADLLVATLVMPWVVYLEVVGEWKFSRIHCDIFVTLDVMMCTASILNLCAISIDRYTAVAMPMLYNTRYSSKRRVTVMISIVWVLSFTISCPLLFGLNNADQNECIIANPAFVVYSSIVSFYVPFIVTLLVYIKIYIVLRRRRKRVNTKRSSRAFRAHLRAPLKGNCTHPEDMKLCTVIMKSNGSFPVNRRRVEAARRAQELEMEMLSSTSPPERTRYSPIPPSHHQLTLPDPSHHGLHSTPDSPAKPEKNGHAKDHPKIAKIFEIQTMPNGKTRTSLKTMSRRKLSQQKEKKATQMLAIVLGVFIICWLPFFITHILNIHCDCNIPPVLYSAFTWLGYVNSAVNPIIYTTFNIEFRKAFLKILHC
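Agonist mode: compounds alone added to overnight-plated D2 PathHunter cells for 90 min at 37 C, with 57 uM final dopamine (EC100) defining full response. Beta-arrestin recruitment detected by chemiluminescent reagent, read after 1 h at ambient temperature.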
Sfp inh: blocks B. subtilis Sfp PPTase activity; Potency, µM, for inactives: max response, negative = inhibition, hits mostly inhibitors; AID 1490; 310,000 compounds, 3.5% hits; Biochemical Sfp PPTase activity, qHTS; active means well fitted inhibition curve with a large enough effect; inconclusive means small, poorly fitted or top-dose-only effect, or another doubt; inactive means no such curve, though single readings can be large or run the other way;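 further: the enzyme is Sfp with the accession as filed and its product quenches rhodamine fluorescence; potency means the concentration at half of the fitted maximal effect; 0% = enzyme reaction without inhibitor and -100% = no enzyme wells; top concentration of the series not given in the record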
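With Hepes-Na pH 7.6 buffer containing 10 mM MgCl2, Sfp (15 nM) modified BHQ-2-YbbR (12.5 uM) using rhodamine-CoA (5 uM). Two reads 30 minutes apart at 525/598 nm yielded each well's rate.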
gsp agonist: gsp mutant agonism; gsp mutant cells, cAMP HTRF, 30 min; control for the full effect not named in the record; Potency, µM (series often up to 76.9 µM), for inactives: at the highest dose activation (cAMP increase), actives largely listed as activators; 340,000 compounds, 0.13% hits; active = well fitted activation curve with a large enough effect; inconclusive = small, poorly fitted or top-dose-only effect, or another doubt; inactive = no such curve, though single readings can be large or run the other way; cell line not stated here;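 further: phosphodiesterase inhibitor Ro 20-1724 added with compounds to block cAMP breakdown; potency means the concentration at half of the fitted maximal effect; nearly all actives have a fitted effect of over 60% in size; about a fifth of the inactives were tested at one dose only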
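Cells stably selected in G418 were plated at 2000/well, grown 16-24 hr, then given compounds in DMSO with the PDE inhibitor […] (300 uM solution added) for 30 min at 37C; cAMP was read by HTRF.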
Menin-MLL FL inh: menin-MLL binding inhibition, fluorescein peptide. FP activity change, % at 61.4 µM. Fluorescence polarization, fluorescein-MLL peptide displacement from menin. AID 1766. 290,000 tested, under 10 active; inconclusive = falling polarisation curve, or a change in total fluorescence; inactive = total fluorescence flat and polarisation flat or rising; no compound was filed as active; the % refers to the polarisation; negative = inhibition;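 further: % of control where 0% means no effect; inhibitors lower the polarisation; unlabelled MLL peptide was the positive control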
PINK1 expr mod: PINK1 expression modulation | 410,000 compounds, 0.2% hits | Potency, µM (titrated, usually from 76.6 µM), for the others: at the top dose activation (PINK1 increase), actives largely listed as activators | AID 624263 | PINK1 immunofluorescence, high-content cytometry, 24 h; active = well fitted activation curve with a large enough effect; inconclusive = small, poorly fitted or top-dose-only effect; inactive = flat fitted curve, though single readings scatter; cell line not stated here;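 further: potency means the concentration at half of the fitted maximal effect; % of control where 0% means no effect; nearly all actives have a fitted effect of over 65% in size; a mitochondrial uncoupler was the plate control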
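Compound titrations (5 concentrations, 24 h) on a stable cell line; DMSO and CCCP controls. Endpoint: fixed-cell PINK1 immunofluorescence with mitochondrial, cell and nuclear markers, scanned by microplate cytometer.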
An asterisk follows results filed as active; ? = inconclusive; nt = no result given; & = joins results of further samples; [ ] = another dose, or the depositor's remark.

SMILES | ClpP mod | gsp antag | D2 ag | Sfp inh | gsp agonist | Menin-MLL FL inh | PINK1 expr mod
COc1ccc(/C=N/n2c(N)nc3ccccc32)cc1OC | -2.1% | 3% | -2.6 | -11% | 6% | -0.2 | 9.2%
Cc1cccc(OCC(=O)O/N=C(\N)Cc2cccs2)c1 | -1.2% | 0% | 0.5 | -6% | 8% | -3.5 | 0.3%[38.3 µM]
CC(C)(C)c1cc(NS(=O)(=O)c2cccs2)no1 | 2.2% | -9% | -4.4 | 9% | -32%[inhibitor] | -2.3 | 0.7%
CCNC(=S)N1CCc2cc(OC)c(OC)cc2C1COc1ccc(OC)cc1 (stereo not drawn) | 4.6% | -27% | 0.5 | 12% | ? | -8.8 | 9.2%
COc1ccc(S(=O)(=O)N2CCOC2CNC(=O)C(=O)NCCCN2CCOCC2)cc1 (stereo not drawn) | -6.8% | -1% | -4.1 | 22% | -1% | -3.7 | 0.5%
C=CCn1c(=O)c2ccccc2n2c(SCC(=O)NC)nnc12 | -9.7% | 7% | 0.9 | -1% | 9% | -13 | 2.1%
C=CS(=O)(=O)c1ccc(Oc2ccc(S(=O)(=O)C=C)cc2)cc1 | -0.3% | -3% | -6.4 | ? | 5% | 1.3 | 5.2%
COc1ccc(CNC(=O)C(C)NS(=O)(=O)c2ccc(C)cc2)cc1 (stereo not drawn) | -0.8% | 12% | -1.8 | 19% | -5% | -5.0 | 1.3%
COc1ccc(Cc2c(O)nc(SCC(=O)NC34CC5CC(CC(C5)C3)C4)[nH]c2=O)cc1 | 2.3% | -10%&-6% | -1.0&-2.7 | 10%&22% | -1% | -6.8&-1.0 | -0.9%&0.2%
Cc1ccc(Cl)cc1NC(=S)N(CCN(C)C)Cc1cccs1 | nt | 8% | -4.9 | 2% | 12% | -1.2 | 0.0%
O=C1CC(c2ccc(Cl)cc2)n2nc(NS(=O)(=O)c3ccc(F)cc3)nc2N1 (stereo not drawn) | -0.4% | 4% | 0.9 | -1% | -6% | 3.1 | 2.3%
CC(C)(C)C(=O)Nc1cccc(-c2nc3ccccc3[nH]2)c1 | ? | -7% | -2.2 | ? | -31%[inhibitor] | 3.0 | -1.1%
Cc1c(-c2nc(-c3ccc(C(F)(F)F)cc3)no2)n(C)oc1=O | nt | 5% | 12 | 13% | 27% | 0.8 | 0.4%
O=C(NN=Cc1cc([N+](=O)[O-])ccc1O)c1cccc2ccccc12 | -1.4% | -25% | -0.1 | nt | -1% | nt | -3.5%
COc1cc(NC(=O)CSc2nc(C)cs2)cc(OC)c1 | -0.3% | -8% | -3.4 | 8% | -3% | -3.9 | nt
CC1=C(C(=O)NC2CC(C)(C)Cc3c2cnn3-c2cccc(F)c2)OCCO1 (stereo not drawn) | -1.0% | -11% | -2.1 | -6% | -12% | nt | 1.2%
O=C(Nc1ncn[nH]1)c1ccccc1Br | 0.4% | 5% | -5.7 | 3% | 1% | nt | 0.8%
O=C(COc1ccc(Cl)cc1)N1CCCCC1 | -0.1% | 15% | -3.6 | -1% | -8% | -2.9 | 2.4%
CC(=O)N(Cc1cc(=O)[nH]c2ccccc12)c1ccccc1C | -1.5% | 4% | -2.0 | -16% | 19%[15.4 µM] | 2.0 | -0.6%
CCC(C)(CC(=O)O)CC(=O)Nc1cc(C(F)(F)F)cc(C(F)(F)F)c1 (stereo not drawn) | 2.5% | -2% | -0.2 | 12% | 0%[15.4 µM] | -1.9 | 0.8%

Profiles, quoted from the list. Order of screens: ClpP mod, gsp antag, D2 ag, Sfp inh, gsp agonist, Menin-MLL FL inh, PINK1 expr mod
Profile of O=C1CC(c2ccc(Cl)cc2)n2nc(NS(=O)(=O)c3ccc(F)cc3)nc2N1 (stereo not drawn) : -0.4%, 4%, 0.9, -1%, -6%, 3.1, 2.3%
Profile of O=C(COc1ccc(Cl)cc1)N1CCCCC1 : -0.1%, 15%, -3.6, -1%, -8%, -2.9, 2.4%

Carrying on.
SMILES | ClpP mod | gsp antag | D2 ag | Sfp inh | gsp agonist | Menin-MLL FL inh | PINK1 expr mod
S=C(NCC1CCCO1)Nc1ccc(Nc2ccccc2)cc1 (stereo not drawn) | nt | nt | -1.4 | 18% | 0%[15.4 µM] | 2.1 | 0.6%
CN1CCN(CCC(=O)Nc2cccc(Br)c2)CC1 | nt | 3% | -0.9 | 18% | 1%[15.4 µM] | 3.3 | 0.1%
CCOc1ccccc1CN1CCN(Cc2[nH]c3ccccc3c2C)CC1CCO (stereo not drawn) | -18% | -5% | -8.4 | 3% | -12% | -3.2 | 7.4%
O=C(N/N=C/c1cccc(OC(=O)N2CCOCC2)c1)c1cccs1 | nt | -8% | 2.5 | 12% | -3%[15.4 µM] | 1.9 | 2.5%
CCCc1nn(-c2ccccc2)c2c1C(c1cccs1)C(C#N)=C(N)O2 (stereo not drawn) | 0.3% | 1% | -2.8 | 3% | 8% | 2.0 | 9.4%
CCOC(=O)c1c(C)[nH]c(C)c1C(=O)COc1ncnc2ccccc12 | nt | 4% | -3.3 | 11% | -7%[15.4 µM] | -1.0 | 2.9%
CCOCCn1c(CN2CCN(C(c3ccccc3)c3ccccc3)CC2)nc2c1c(=O)n(C)c(=O)n2C | nt | 3% | -1.5 | -1% | -40%[inhibitor] | 2.3 | -2.1%
CCc1ccc(S(=O)(=O)N(C(=O)c2ccncc2)c2ccc(OC(=O)c3ccncc3)cc2)cc1 | -1.3% | 6% | -0.6 | -2% | -5% | 5.5 | 2.2%
CC(c1ccccc1)N1CCn2c(nc3cc(NC(=O)NC4CCCCC4)ccc32)C1 (stereo not drawn) | ? | 4% | -0.7 | -6% | -5% | 3.5 | 12%[38.3 µM]
Cc1ccc(S(N)(=O)=O)cc1NC(=O)/C=C/c1ccc2c(c1)OCO2 | nt | nt | -0.8 | -9% | 11%[15.4 µM] | -0.6 | 5.7%
Cc1ccc(NC(=O)CCNC(=O)c2ccc(Br)cc2)nc1 | -1.6% | 4% | -2.4 | 14% | 17% | 2.7 | 0.5%
CCOC(=O)C1=C(COC(=O)/C=C/c2ccc(Cl)cc2)NC(=O)NC1C (stereo not drawn) | -1.1% | 10% | -1.1 | 16% | 11%[15.4 µM] | nt | 5.8%
Cc1cc(C)c(S(=O)(=O)Nc2cccc(C(F)(F)F)c2)c(C)c1 | 0.4% | nt | nt | 19% | nt | -14 | 4.2%
Cc1cc(SCc2ccc([N+](=O)[O-])cc2)nc(=O)[nH]1 | 0.3% | -7% | -1.4 | 6% | 21% | -0.3 | 0.1%
COc1cccc(C(=O)COC(=O)COc2c(C)cc(C)cc2C)c1 | 1.5% | 7% | 2.7 | nt | 29% | nt | 0.4%
Nc1nc(SCC(=O)c2cc3ccccc3o2)n[nH]1 | -0.7% | 1% | -8.1 | 22µM* | ? | 5.2 | -0.5%
CCn1c2ccccc2c2cc(/C=N/n3cn[nH]c3=S)ccc21 | 14% | ? | 3.4 | -25% | 41% | 2.9 | -7.0%[38.3 µM]
COc1ccc(N(C(=O)COc2cccc(C)c2)S(=O)(=O)c2ccc(C)cc2)cc1 | 3.5% | 2% | -0.9 | -25% | -61%[inhibitor] | 4.3 | 5.1%
CCOC(=O)N1CCC(NC(=O)Cn2cccc2C(=O)c2ccccc2C)CC1 | -3.7% | 3% | -4.5 | 0% | -41%[inhibitor] | -2.2 | -0.7%
COc1ccc(C(=O)Cc2cc3ccccc3oc2=O)cc1 | -14% | 4% | 2.8 | 3% | ? | -3.5 | 3.6%
COc1ccc(CN2CCOCCOCCN(Cc3ccc(OC)cc3)CCOCCOCC2)cc1 | 0.3% | 8% | -4.0 | 13% | 4%[15.4 µM] | -0.8 | -1.7%
Cc1ccc(NC(=O)CN(C)CC(=O)Nc2ccc(N3CCOCC3)cc2)c(C)c1 | -0.1% | 0% | -0.8 | 8% | -9%[15.4 µM] | 6.3 | -0.9%
COCCn1cc(C(=S)N2CCOCC2)c2ccccc21 | 0.7% | 1% | -3.5 | ? | 4% | 3.8 | nt
O=C(NCCc1ccncc1)C(F)(F)F | -1.0% | 9% | 1.9 | 3% | -27% | 3.8 | -1.5%
C/C(=N\Nc1nc(C)cc(-c2ccccc2)n1)c1ccc(O)cc1 | -1.2% | -24% | 3.5 | 7% | 5% | -5.9 | 2.3%
O=C(CCCOc1ccccc1)Nc1ccncc1 | -0.7% | 5% | 3.1 | 19% | 13% | 0.7 | 1.3%
O=C(CCS(=O)(=O)c1cccc2nonc12)N1CCN(c2ccc(F)cc2)CC1 | -5.2% | 1% | 0.2 | 9% | 27% | -7.7 | 0.5%
N/C(=N\OC(=O)CSc1ccccc1)c1ccc([N+](=O)[O-])cc1 | -1.2% | 12% | -3.4 | -13% | -6% | -3.0 | 1.5%
O=C(O)/C(=C\c1c(C(=O)O)[nH]c2cc(Cl)cc(Cl)c12)c1ccccc1 | -0.2% | -1% | -1.4 | nt | nt | nt | 0.1%

Fetched by structure from the entries so far, three records:
SMILES | ClpP mod | gsp antag | D2 ag | Sfp inh | gsp agonist | Menin-MLL FL inh | PINK1 expr mod
COc1ccc(CN2CCOCCOCCN(Cc3ccc(OC)cc3)CCOCCOCC2)cc1 | 0.3% | 8% | -4.0 | 13% | 4%[15.4 µM] | -0.8 | -1.7%
N/C(=N\OC(=O)CSc1ccccc1)c1ccc([N+](=O)[O-])cc1 | -1.2% | 12% | -3.4 | -13% | -6% | -3.0 | 1.5%
Cc1ccc(NC(=O)CN(C)CC(=O)Nc2ccc(N3CCOCC3)cc2)c(C)c1 | -0.1% | 0% | -0.8 | 8% | -9%[15.4 µM] | 6.3 | -0.9%
